# Autofluor counter = flagged as autofluorescent in microsphere protease counterscreen | compound autofluorescence counterscreen, microsphere flow cytometry; hits give high values | fluorescence intensity (no concentration beside the values) | 360,000 compounds, 3.1% hits | AID 624483;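 active = at least 3 SD above the mean of all compounds, about 16000 in these data; inconclusive = too few beads counted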;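 also: 100 nL of 1 mM stock went into each well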
# BJeLR lethal = MLPCN primary cell-based screen for lethality selective to Ras in HRASV12 cells. BJeLR (HRASV12) viability, CellTiter-Glo ATP luminescence, 48 h; reference of the scale not given here. inhibition, % (concentration not given with the values). 300,000 compounds, 0.17% hits;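 active = replicate mean above 50%; inconclusive = above 50% but judged a plate artefact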;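 also: 50 nL library stock added to about 25 µL; numbers are from one replicate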
# RN4220 kill = growth inhibition of S. aureus RN4220, primary screen, OD600. 330,000 compounds, 0.33% hits. 16 h. inhibition, % (test concentration not listed);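 active = z-score of -3 or lower and OD600 up to 0.18 on both plates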;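 also: plate controls were untreated cells for no effect and reference antibiotic for full effect; stock transfer was 100 nL into about 80 µL; one replicate is shown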
# Sa ugtP lethal = growth inhibition of ugtP-null S. aureus, primary screen, RN4220 ugtP deletion, OD600. growth inhibition, % (test concentration not listed). AID 1259309, 2017. 16 h; some inactives read as strong as hits. 330,000 compounds, 0.54% hits;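 active = z-score under -3 and OD600 up to 0.15 on both plates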;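 also: plate controls were untreated wells for no effect and antibiotic for full effect; wells of about 80 µL received 100 nL stock; the first replicate is given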
# PrP 5UTR inh = inhibition of PrP 5' UTR reporter expression | 340,000 compounds, 0.35% hits | inhibition, % (test concentration not listed) | cell-based PrP 5' UTR mRNA reporter, plate reader;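 active = every replicate at 50% or more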;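 also: 0 = median of the neutral control wells; tested in H4 reporter cells; numbers are from one replicate; inactives centre near -14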
# Mtb hypoxia rep = PubChem AID 1159583 | M. tuberculosis hypoxia-regulated fluorescent reporter, fluorescence | fluorescence inhibition, % (concentration not given with the values) | 300,000 compounds, 0.1% hits;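 active = 35 to 45% if threefold the growth effect, above 45% if 1.5-fold the growth effect; inactive = the rest, general growth blockers included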;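 also: wells of about 50 µL received 100 nL stock; 0% = vehicle wells and 100% = reference inhibitor wells; whole bacteria with a GFP reporter of the hypoxia response; strong numbers were not always called active; many hits fall short of the cut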
# Mtb hypoxia rep growth = further read-out of Mtb hypoxia rep, marked with its call; growth inhibition, %; measured here: M. tuberculosis growth (absorbance);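 0% = vehicle and 100% = reference antibiotic; read after six days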
# Starred values were filed as active, the others as inactive; ? = inconclusive; / = not tested or not shown.
SMILES,Autofluor counter,BJeLR lethal,RN4220 kill,Sa ugtP lethal,PrP 5UTR inh,Mtb hypoxia rep,Mtb hypoxia rep growth
CCC(C)(C)n1nnnc1C(c1cc2ccc(OC)cc2[nH]c1=O)N1CCN(C2CCCCC2)CC1 (configuration not stated),21897*,/,1.8,-7,-17,2,15
CCOc1ccc(CNc2ccc(N3CCCC3)cc2)cc1,7093,8,4.4,3,-37,7,7
Cc1cccc(-n2c(N)cc(=O)nc2SCC(=O)Nc2cc(C)on2)c1,2379,-4,10,6,5,/,/
Cc1nc(N2CCN(c3ccccn3)CC2)c2c(C)c(C(=O)Nc3ccc(F)cc3)sc2n1,4328,13,-3.9,1,-22,-10,18
O=C(O)C1CCN(C(=O)CSc2nnc3ccccn23)CC1,3738,/,0.3,3,-19,-3,1
CCOC(=O)C(Sc1cc(-c2ccccc2)nc2ncnn12)C(C)=O (configuration not stated),3855,0,2.6,4,-24,21,5
O=S(=O)(Nc1ccc(-n2cnnn2)cc1)c1cccs1,?,/,3.5,-1,-5,6,16
Cc1cc(C)c2nc(SCC(=O)NCCN3C(=O)CSC3=O)cc(C)c2c1,10262,3,5.7,11,-22,15,2
CC1(CC(=O)N/N=C/c2cc([N+](=O)[O-])c(O)cc2O)OCCO1,4678,1,/,/,-8,/,/
CC(C)N(C(=O)COC(=O)[C@H](C)NC(=O)c1ccco1)c1ccccc1,3188,-11,1.7,5,-28,-1,3
CC1=CC(=O)C(C(C)C)=CC1=NOS(=O)(=O)c1ccccc1,/,/,2.6,3,/,18,17
CS(=O)(=O)c1ccc2nc(NC(=O)c3ccc(S(=O)(=O)NCC4CCCO4)cc3)sc2c1 (configuration not stated),4316,-1,3.1,0,-18,6,7
O=C(CN1C(=O)C2CCCCC2C1=O)Nc1nc(-c2ccc(F)cc2)cs1 (configuration not stated),5855,4,3.4,2,-5,-6,-2
COc1cc(NC(=O)CSCc2ccccc2)c(C(=O)O)cc1OC,3237,-1,3.8,10,-33,12,2
CCC[N+](CC#CCO)(CC#Cc1ccccc1)CCC,3865,-1,5.6,4,-29,12,5
C=CCn1c(SCC(=O)NC(=O)NCC(C)C)nnc1C1CCCCC1,4522,1,4.6,-3,-3,-2,6
COC(=O)c1cc(-c2ccccc2)sc1NC(=O)c1cc(C)on1,/,3,7.0,-2,/,-3,10
O=C(O)c1cccc(N2C(=O)c3ccc4c5c(ccc(c35)C2=O)C(=O)N(c2cccc(C(=O)O)c2)C4=O)c1,4537,-6,7.5,12,6,19,12
CCOC(=O)c1ccc(NC(=O)CCNS(=O)(=O)c2ccc3c(c2)oc(=O)n3C)cc1,23217*,2,4.0,0,-28,3,4
CN(Cc1ccc(OC(F)F)cc1)C(=O)c1ccccc1Sc1ccccc1C#N,5850,-7,5.7,-7,11,13,1
O=C(Nc1c2c(nc3ccccc13)CCCC2)c1ccccc1Cl,2496,5,0.4,0,-13,11,-3
COC1CC(=NO)C2OC(c3ccccc3)OCC2O1 (configuration not stated),/,/,1.7,1,/,4,-2
CC(=O)Nc1cccc(C(C)=NNC(=O)c2ccc(Cl)cc2Cl)c1,/,/,-0.9,-1,/,8,5
COc1ccccc1-c1nc2n(n1)C(c1cccs1)C(C(=O)Nc1cccnc1)=C(C)N2 (configuration not stated),?,0,3.3,9,-23,1,0
O=C(COC(=O)c1ccc(-c2ccccc2)cc1)Nc1ccccc1-c1ccccc1,1923,3,-3.4,7,-5,-6,13
CC1CCN(c2ccc(NC(=O)c3ccccc3[N+](=O)[O-])cc2)CC1,5912,-4,9.5,11,-34,13,5
CCCN1CCC(NC(=O)Nc2cc(Cl)ccc2OC)CC1,4471,-4,0.0,-6,-16,3,6
CCc1ccc(N(CC(=O)NC2CCCC2)S(=O)(=O)c2c(C)noc2C)cc1,5161,2,-1.7,11,0,/,/
O=C(c1cccnc1)N1CCN(c2c(Cl)cccc2[N+](=O)[O-])CC1,3329,-3,-6.2,-2,-21,7,8
CCn1cc(Cl)c(C(=O)Nc2cccc(CN3CCOCC3)c2)n1,6247,/,3.2,0,-23,5,10
CC(=O)Nc1ccc(S(=O)(=O)NCCC(=O)OCc2nc(N)nc(Nc3ccccc3C)n2)cc1,4323,2,2.9,4,2,-1,9
Oc1ccccc1N=Cc1ccc[nH]1,3506,-5,12,-1,-20,81*,45*
CC(Sc1nnc(COc2ccc(Cl)cc2)n1-c1ccccc1)C(=O)O (configuration not stated),3238,-6,/,/,-16,/,/
COc1cccc(NC(=O)c2c(C)cc(C)cc2CC(C)(C)C(=O)O)c1,3612,4,-3.9,-5,-15,-4,-7
Cc1cc(NC(=O)COC(=O)c2ccccc2S(=O)(=O)N(C)c2ccccc2)no1,3959,16,4.5,0,-2,13,8
CC(Cc1ccccc1)=NNC(=O)CNC(=O)C(c1ccccc1)c1ccccc1,/,/,-1.5,-1,/,-3,8
CCOc1cc(OCC)cc(C(=O)O)c1,6273,-14,-2.1,-6,-18,-7,4
CCN(CC)c1ccc(/C=c2\sc3nc4ccccc4n3c2=O)c(O)c1,5189,5,/,/,-16,/,/
CCCCCOc1ccc2oc(=O)c3c(c2c1)CCCN3C(=O)CN1CCCC(C(=O)OCC)C1 (configuration not stated),4317,-11,1.8,-8,-25,-1,2
NC1=NC(=O)C(Cc2ccc(F)cc2)S1 (configuration not stated),4190,6,/,/,0,/,/
COc1cc(C)c(C(C)C)cc1S(=O)(=O)n1ccnc1,5732,3,4.4,7,-19,8,-6
CCOC(=O)Nc1cc(C(=O)OC)cc(C(=O)OC)c1,4370,-1,1.6,-2,5,-5,11
Cc1cc(C(=O)Nc2cccc(S(=O)(=O)N3CCCC3)c2)c2ccccc2n1,6141,/,0.8,0,-15,0,2
CC(=NN1CCN(Cc2cccc3ccccc23)CC1)c1ccco1,/,/,3.5,13,/,12,7
Cc1cccc(NC(=O)CSCc2nc3c(nnn3Cc3ccc(F)cc3)c(=O)[nH]2)c1C,4552,-27,5.6,5,-21,16,-2

# Exported tab-delimited: part of the list above.
SMILES	Autofluor counter	BJeLR lethal	RN4220 kill	Sa ugtP lethal	PrP 5UTR inh	Mtb hypoxia rep	Mtb hypoxia rep growth
CCOC(=O)Nc1cc(C(=O)OC)cc(C(=O)OC)c1	4370	-1	1.6	-2	5	-5	11
CC(Cc1ccccc1)=NNC(=O)CNC(=O)C(c1ccccc1)c1ccccc1	/	/	-1.5	-1	/	-3	8
CC(Sc1nnc(COc2ccc(Cl)cc2)n1-c1ccccc1)C(=O)O (configuration not stated)	3238	-6	/	/	-16	/	/

# Going on with the list:
SMILES,Autofluor counter,BJeLR lethal,RN4220 kill,Sa ugtP lethal,PrP 5UTR inh,Mtb hypoxia rep,Mtb hypoxia rep growth
COc1ccccc1-c1c(C)oc2c(CN3CCN(CCO)CC3)c(O)ccc2c1=O,3251,-7,13,-4,-14,4,15
CSC1=N/C(=C\c2cccc(F)c2)C(=O)S1,2976,1,6.7,6,-5,12,7
Cc1ccc(C)c(NC(=O)C2CCC(C)(C(=O)O)C2(C)C)c1 (configuration not stated),24078*,-21,2.2,-7,-15,7,13
CC(=O)c1ccc(S(=O)(=O)N(C)C(C)CCc2ccco2)cc1 (configuration not stated),3918,7,4.8,3,-1,-5,-2
COCCCNC(=O)c1c(N)n(N=Cc2cccnc2)c2nc3ccccc3nc12,/,/,5.9,-9,/,6,3
CC(C)Sc1nc(-c2ccccc2)cc(=O)[nH]1,8590,-6,-1.3,-5,-29,-14,-13
O=C(CSc1nnc(Cn2c(=O)sc3ccccc32)n1CCc1ccccc1)N1CCOCC1,16901*,/,10,14,-16,6,6
CN(CCS(=O)(=O)c1ccc(Cl)cc1)Cc1cccnc1,3819,5,2.7,11,-31,10,15
CC(=O)c1cccc(NC(=O)CCS(=O)(=O)c2ccc(Br)s2)c1,3288,9,2.6,0,-14,-1,-3
CCN(CC)S(=O)(=O)c1ccc(C(=O)OCCN2C(=O)CCC2=O)cc1,6070,-4,-3.3,-5,-10,/,/
CC1=C(C(=O)c2ccccc2)C(c2ccc(O)cc2)NC(=S)N1 (configuration not stated),4760,8,4.3,5,-12,-9,-4
C=CCN1N=C(c2ccc(Cl)s2)CSC1=O,6834,0,7.4,7,-3,6,2
COc1ccc(CC(=O)Nc2cccc(S(=O)(=O)N3CCCCCC3)c2)cc1OC,8992,2,-4.0,2,-19,-1,3
CCN(CC(=O)Nc1cc(Cl)ccc1C)C(=O)c1ccc(N2CCCC2=O)cc1,?,/,3.7,6,-18,7,8
CN(C)C(=O)Oc1ccc(OCc2nc3ccccc3[nH]2)cc1,2774,46,1.3,9,-5,7,-2
O=C(/C=C\Nc1ccccn1)c1ccc(Cl)cc1,6601,/,20,-5,34,11,8
CCc1nc(SCC(=O)NCCc2ccccc2)c2c(=O)n(C)c(=O)n(C)c2n1,3595,4,7.7,7,-23,9,3
COC(=O)c1ccc(/C=N/N2CCN(Cc3ccc(C)cc3C)CC2)cc1,7506,3,/,/,-7,/,/
O=C(CCC(=O)N1CCN(Cc2ccccc2)CC1)Nc1nnc(C2CCCCC2)s1,4832,-6,1.8,9,-24,5,-2
O=c1cc(CO)oc(C(Nc2cccc(C(F)(F)F)c2)c2ccccn2)c1O (configuration not stated),5898,5,1.5,-15,-23,/,/
CCCCNC(=O)c1ccc(NC(=O)C2CCCO2)cc1 (configuration not stated),3334,-9,1.1,2,-15,13,9
Cc1ccc(S(=O)(=O)N(CC(=O)Nc2ccccc2)C(=O)N2CCN(C)CC2)cc1,?,-1,5.1,4,-11,6,0
Cc1cc2c3c([nH]c2cc1S(=O)(=O)NCc1ccc(CN2CCCCCC2)o1)CC(C)(C)CC3=O,4770,-10,4.1,9,-9,19,9
COc1ccc(NC(=O)c2ccc(S(=O)(=O)N3CCOCC3)o2)cc1,3767,-4,2.2,5,-17,4,15
Cc1nn(CC(=O)NCCCc2ccccc2)c(=O)c2cc3occc3n12,5948,13,1.9,8,-8,6,7
COc1ccc(NC(=O)CS(=O)c2cccc(Cl)c2)cc1 (configuration not stated),15055,13,1.6,7,-27,1,-1
S=c1[nH]nc(-c2ccco2)n1N=Cc1ccccn1,/,/,0.5,1,/,-5,-1
O=C(c1ccoc1)N1CCCC(N2CCN(c3ccc(F)cc3)CC2)C1 (configuration not stated),5250,-14,0.1,3,2,6,11
N/C(=N\OC(=O)Cc1ccc(Cl)cc1)c1cccnc1,11063,-5,5.6,1,-17,10,13
Cc1cc(C)cc(-n2ncc3c2CCCC3NC(=O)c2csnn2)c1 (configuration not stated),5712,-5,0.0,-1,-11,10,4

# Profiles from above. Values in the order: Autofluor counter | BJeLR lethal | RN4220 kill | Sa ugtP lethal | PrP 5UTR inh | Mtb hypoxia rep | Mtb hypoxia rep growth
# Profile of CCc1ccc(N(CC(=O)NC2CCCC2)S(=O)(=O)c2c(C)noc2C)cc1 : 5161 | 2 | -1.7 | 11 | 0 | / | /
# Profile of O=C(COC(=O)c1ccc(-c2ccccc2)cc1)Nc1ccccc1-c1ccccc1 : 1923 | 3 | -3.4 | 7 | -5 | -6 | 13

# Other compounds follow.
SMILES,Autofluor counter,BJeLR lethal,RN4220 kill,Sa ugtP lethal,PrP 5UTR inh,Mtb hypoxia rep,Mtb hypoxia rep growth
Cc1ccc(C=NNC(=O)c2cccc([N+](=O)[O-])c2)o1,/,/,2.2,4,/,8,5
C=CCN1CC[C@@]2(C)c3cc(O)ccc3CC1C2C (some centres not stated),/,/,-2.8,-1,/,-6,2
CC1=NN(Cc2ccccc2)C(=O)C1C(c1ccncc1)C(C#N)C#N (configuration not stated),3623,1,6.0,-4,-7,5,1
Cc1cccc2c1cnn2C(=O)CCC(=O)N1CCC(C)CC1,5763,-12,-14,-4,-15,4,14
CCNC(=O)N1CCCC(C(=O)c2ccc(-c3ccccc3)cc2)C1 (configuration not stated),3395,1,0.1,8,-34,-1,7
O=C1CC(c2nc3ccccc3[nH]2)CN1c1cccc(C(F)(F)F)c1 (configuration not stated),5189,1,-1.1,7,-35,4,3
O=C(NNC(=O)c1ccc(-n2cncn2)c([N+](=O)[O-])c1)c1cccc(Cl)c1,5201,0,1.9,1,-14,-7,1
CC(=O)Cn1cnc2sc(-c3ccccc3)cc2c1=O,3733,13,4.3,7,-50,/,/
CCCN(C(=O)c1ccco1)c1nnc(-c2ccccc2C)s1,2560,-9,-0.9,12,-18,8,21
COc1ccccc1CNS(=O)(=O)c1ccc(Cl)s1,4598,-3,2.4,0,-7,15,0
O=C(O)C1CC=CCC1C(=O)N1CCN(c2nc(-c3ccccc3Cl)c3cc(Br)ccc3n2)CC1 (configuration not stated),16567*,/,-1.9,-23,-12,12,13
